rRNA inh HTS = inhibitors of bacterial rRNA selective over humanized ribosomes. AID 720706. GFP signal change (wild-type ribosome), % (concentration not given with the values). E. coli WT GFP vs humanized-ribosome RFP mutants, fluorescence, 24 h; active compounds read low; DMSO median 0, no signal -100. 350,000 compounds, 1.6% hits;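 active = significant combined selectivity score with lowered wild-type GFP, culture density cut under 30%, mutant RFP and density less affected; inactive = any of these conditions unmet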; also: one replicate is shown; some compounds called inactive have numbers as strong as hits
FGF22 binding = shifts melting point of recombinant human FGF22 | 340,000 compounds, 1.5% hits | Q9HCT0 | AID 651658 | recombinant FGF22 thermal shift, SYPRO orange fluorescence; percent of sucrose octasulfate shift, DMSO zero | calls only at 9.99 µM;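 active = melting point raised past a set limit in the mean and every replicate; three in four hits are not shown here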
Target sequence (Q9HCT0 whole entry, looked up): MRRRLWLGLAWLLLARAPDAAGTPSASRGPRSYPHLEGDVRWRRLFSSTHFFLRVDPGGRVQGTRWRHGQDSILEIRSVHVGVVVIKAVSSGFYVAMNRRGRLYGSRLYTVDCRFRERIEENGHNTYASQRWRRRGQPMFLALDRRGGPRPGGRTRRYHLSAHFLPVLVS
rRNA inh HTS OD600 = recorded beside rRNA inh HTS, whose call it bears; OD600 change, %; measured here: OD600 growth;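 optical density of the mix in the first replicate; 0 = DMSO median and -100 = no signal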
rRNA inh HTS RFP = also measured in rRNA inh HTS; calls as there; RFP signal change, %; measured here: RFP humanized mutant strains;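 first replicate; 0 = DMSO median and -100 = no signal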
An asterisk follows results filed as active; i = inactive; . = not tested or not shown; & = joins results of further samples.

SMILES	rRNA inh HTS	rRNA inh HTS OD600	rRNA inh HTS RFP	FGF22 binding
C[C@@H]1CCCCO[C@H](CN(C)C(=O)c2ccncc2)[C@H](C)CN([C@@H](C)CO)C(=O)c2cc(NC(=O)CCC(F)(F)F)ccc2O1	1.7	5.7	-1.3	i
CC(C)CN1C(=O)CSCC1(C)C(=O)Nc1ccc2c(c1)OCCO2 (configuration not stated)	12.1	16.9	-0.7	i
CCCC(=O)Nc1ccc2c(c1)C(=O)N(C)[C@H]1CC[C@H](CC(=O)Nc3ccccc3F)O[C@@H]1CO2	-4.2	-7.3	0.6	i
CCC(=O)NC[C@@H]1[C@@H](c2ccc(-c3cccc(F)c3)cc2)[C@H](CO)N1C(=O)CC	-5.2	-6.9	1.4	i
O=S(=O)(c1cccc(F)c1)N1CC[C@@H]2[C@H](CO)Nc3ccc(-c4cccc(F)c4)cc3[C@@H]21	-19.2	-50.4	0.1	i
Cc1cc(N2CCN(CC(C)(C)O)C[C@@H]2C)ccc1N1CCN(Cc2ccccc2)[C@@H](C)C1	10.4	10.7	3.1	i
COc1ccc(NC(=O)Nc2ccc3c(c2)CC(=O)N([C@H](C)CO)C[C@H](C)[C@@H](CN(C)Cc2ccc(C(F)(F)F)cc2)O3)cc1	2.0	4.4	0.1	i
COc1ccc(NC(=O)N(C)C[C@H]2OCCCC[C@H](C)Oc3ccc(NC(=O)c4ccncc4)cc3C(=O)N([C@H](C)CO)C[C@@H]2C)cc1	-0.5	-1.4	-0.7	i
CN(C)C(=O)c1cccc(-c2ccc3c(c2)[C@H]2[C@H](CCN2Cc2ccccc2F)[C@@H](CO)N3)c1	2.2	-4.3	8.2	i
O=C(C[C@@H]1CC[C@@H]2[C@H](COC[C@@H](O)CN2Cc2nccs2)O1)N1CCC(Cc2ccccc2)CC1	i	.	.	i
COc1ccc(CN(C)C[C@H]2OCCCC[C@@H](C)Oc3ccc(NS(=O)(=O)c4ccc(OC)cc4)cc3C(=O)N([C@@H](C)CO)C[C@H]2C)cc1	2.0	-5.3	5.0	i
COC(=O)C1=C(C)N(Cc2ccc(C(F)(F)F)cc2)C(=NCc2ccccc2C(F)(F)F)NC1c1ccccc1 (configuration not stated)	-42.5	-76.9	-8.9	i

Just rRNA inh HTS OD600, FGF22 binding and rRNA inh HTS RFP (3 entries from above):
Compound	rRNA inh HTS OD600	FGF22 binding	rRNA inh HTS RFP
COc1ccc(NC(=O)N(C)C[C@H]2OCCCC[C@H](C)Oc3ccc(NC(=O)c4ccncc4)cc3C(=O)N([C@H](C)CO)C[C@@H]2C)cc1	-1.4	i	-0.7
CN(C)C(=O)c1cccc(-c2ccc3c(c2)[C@H]2[C@H](CCN2Cc2ccccc2F)[C@@H](CO)N3)c1	-4.3	i	8.2
O=C(C[C@@H]1CC[C@@H]2[C@H](COC[C@@H](O)CN2Cc2nccs2)O1)N1CCC(Cc2ccccc2)CC1	.	i	.

Next records
SMILES	rRNA inh HTS	rRNA inh HTS OD600	rRNA inh HTS RFP	FGF22 binding
COCc1cc(N2CCNC[C@H]2C)ccc1N1C[C@@H](C)O[C@@H](C)C1	26.5	23.5	1.4	i
C[C@@H]1CN([C@@H](C)CO)C(=O)c2cc(NC(=O)NC3CCCCC3)ccc2O[C@@H](C)CCCCO[C@H]1CN(C)S(=O)(=O)c1cccs1	-0.4	3.0	7.0	i
O=C(C[C@H]1CC[C@H]2[C@@H](COC[C@@H](O)CN2Cc2ccc3c(c2)OCO3)O1)Nc1ccc(-c2ccccc2)cc1	12.0	-15.6	4.8	i
C[C@@H]1CN([C@H](C)CO)C(=O)c2cc(NC(=O)C3CCCCC3)ccc2O[C@@H](C)CCCCO[C@@H]1CN(C)Cc1ccc(C(F)(F)F)cc1	-5.2	-15.6	-2.5	i
CN1C(=O)c2cc(NS(C)(=O)=O)ccc2OC[C@H]2O[C@H](CC(=O)NCc3ccc(-c4ccccc4)cc3)CC[C@@H]21	-6.4	-26.8	1.7	i
CN1C(=O)c2cc(NC(=O)c3cccs3)ccc2OC[C@H]2O[C@@H](CC(=O)NCC3CC3)CC[C@H]21	-6.8	-3.3	0.5	i
Cc1noc(C)c1S(=O)(=O)Nc1ccc2c(c1)C(=O)N([C@@H](C)CO)C[C@@H](C)[C@@H](CN(C)C(=O)CCCN(C)C)OCCCC[C@@H](C)O2	1.4	-0.9	-3.2	i
COc1ccccc1CNC(=O)C[C@@H]1CC[C@H]2[C@@H](COc3ccc(NC(C)=O)cc3C(=O)N2C)O1	6.2	19.9	1.1	i
CCOC(=O)N[C@H](C(=O)N1CCC[C@H]1C(=O)NC1CCCC1)c1ccccc1	8.2	8.9	2.8	i
CCCc1cc2c(O)ccc(O)c2c(=O)o1	19.7	1.6	9.6	i
C[C@@H]1CN([C@@H](C)CO)C(=O)c2cc(Br)cnc2O[C@H]1CN(C)CC1CCOCC1	8.1	1.5	0.2	i
CS(=O)(=O)N1[C@@H]2c3cccc(=O)n3C[C@H]1[C@H](CO)[C@H]2C(=O)NCc1ccc(F)cc1	-0.1	5.2	1.8	i
Cc1noc(C)c1S(=O)(=O)Nc1ccc2c(c1)CC(=O)N([C@H](C)CO)C[C@H](C)[C@H](CN(C)C(=O)Nc1ccc3c(c1)OCO3)O2	2.1	2.1	-1.2	i
COCC(=O)Nc1ccc2c(c1)OC[C@@H](C)N(C(C)=O)C[C@H](C)[C@@H](OC)CN(C)C2=O	0.1	4.2	-1.1	i
Cc1cc(N2CCN(C(=O)OC(C)(C)C)C[C@H]2C)ccc1N1C[C@@H](C)O[C@@H](C)C1	13.1	21.4	-1.9	i
O=C(C[C@H]1C[C@H]2c3cc(NC(=O)Nc4ccc(F)cc4)ccc3O[C@H]2[C@H](CO)O1)NC1CCCCC1	-2.0	3.1	-2.9	i
COc1ccc(S(=O)(=O)N2CC[C@H]3[C@@H](CO)N(C)c4ccc(-c5ccccc5F)cc4[C@H]32)cc1	-0.5	0.5	6.7	i
Cc1ccccc1NC(=O)Nc1ccc2c(c1)C(=O)N(C)[C@@H]1CC[C@H](CC(=O)O)O[C@@H]1CO2	0.8	3.6	-0.2	i
CC(C)S(=O)(=O)N[C@@H]1c2cc3c(cc2[C@H](c2ccccc2)[C@H]1C)OCO3	25.5	23.5	6.4	i
COc1ccc(S(=O)(=O)Nc2ccc3c(c2)C(=O)N([C@H](C)CO)C[C@H](C)[C@@H](CN(C)Cc2ccc(Cl)c(Cl)c2)OCCCC[C@H](C)O3)cc1	-1.3	-19.0	14.1	i
C/C=C/c1ccc(C2[C@@H]3CN(S(=O)(=O)c4cccc(OC)c4)C[C@H]2N3)cc1 (some centres not stated)	-3.8	-13.2	-0.3	i
CCOC(=O)N[C@H](C(=O)N1CCC[C@H]1C(=O)NC1CCCC1)C1CCCCC1	3.8	2.0	5.7	i
Cc1ccc(S(=O)(=O)N2[C@@H](CCO)OC[C@H]2C(C)C)cc1	3.6	2.3	-0.1	i
COc1ccc(NC(=O)Nc2cccc3c2O[C@@H](CN(C)S(=O)(=O)c2ccc(F)cc2)[C@@H](C)CN([C@@H](C)CO)C3=O)cc1	-2.7	-3.6	1.4	i
Cc1ccc(C(=O)N(C)[C@H]2C[C@H]3c4[nH]c5c(-c6ccccc6)cccc5c4CCN3C(=O)[C@H]2[C@H](C)O)cc1	-20.4	-24.5	12.8	i
COc1ccc(C)cc1N	9.2	6.8	0.2	i
C[C@H](CO)N1C[C@H](C)[C@H](CN(C)S(C)(=O)=O)Oc2ccc(NC(=O)Cn3cnnn3)cc2CC1=O	5.3	4.8	0.0	i
O=C(C[C@@H]1C[C@@H]2c3cc(NC(=O)Nc4ccc(F)cc4)ccc3O[C@@H]2[C@@H](CO)O1)NCC1CC1	4.2	6.9	1.0	i
COc1ccc(CN(C)C[C@@H]2OCCCC[C@H](C)Oc3ccc(NC(=O)Nc4ccccc4)cc3C(=O)N([C@H](C)CO)C[C@@H]2C)cc1	0.0	-33.7	30.8	i
C[C@@H]1CN(c2ccc(N3CCNC[C@@H]3C)cc2C#N)CCN1Cc1ccccc1	9.5	5.3	5.5	i
CCCC(=O)N1CC2(CCN(S(=O)(=O)CC)CC2)c2c(n(C)c3cc(OC)ccc23)[C@H]1CO	-1.1	7.7	-1.0	i
C[C@H]1CN([C@@H](C)CO)C(=O)Cc2cc(NC(=O)Nc3ccc4c(c3)OCO4)ccc2O[C@@H]1CN(C)S(=O)(=O)c1cn(C)cn1	1.1	4.6	-1.9	i
Nc1sc(-c2ccccc2)cc1C(=O)NCCN1CCOCC1	6.2	21.1	2.7	i
COC(=O)C1=C(C)N(Cc2ccc(F)cc2)C(=S)NC1c1ccc(F)cc1 (configuration not stated)	-27.9	-61.1	-9.5	i
COc1ccccc1C(=O)N1CCN(C(=O)[C@@H](Cc2ccccc2)NC(=O)[C@H]2O[C@@H](n3ccc(=O)[nH]c3=O)[C@H](O)[C@@H]2O)CC1	-7.1	9.0	-4.7	i
C[C@@H]1CCCCO[C@@H](CN(C)S(=O)(=O)c2cn(C)cn2)[C@H](C)CN([C@H](C)CO)C(=O)c2cc(NC(=O)Cc3ccccc3)ccc2O1	-0.3	11.4	-1.3	i
Cn1cnc(CCNC(=O)C[C@H]2CC[C@@H]3[C@H](COC[C@H](O)CN3C(=O)Nc3ccc(C(F)(F)F)cc3)O2)c1	-57.1	-73.9	-17.9	i
Cc1noc(C)c1S(=O)(=O)N(C)C[C@@H]1OCCCC[C@@H](C)Oc2ccc(NC(=O)Nc3ccc4c(c3)OCO4)cc2C(=O)N([C@H](C)CO)C[C@H]1C	1.0	5.5	-0.4	i
Cc1[nH]nc2c1C(c1ccc(Br)cc1)N(c1ccccc1)C2=O (configuration not stated)	-44.6	-72.2	-17.2	i
Cc1c(N)cccc1Cl	2.4	7.2	-0.4	i
N#C[C@@H]1[C@H](c2ccccc2-c2ccccc2)[C@@H](CO)N1C(=O)Cc1ccccc1	-8.4	-28.9	-2.1	i
O=C(C[C@@H]1CC[C@@H]2[C@H](COC[C@H](O)CN2S(=O)(=O)c2cccc(F)c2)O1)Nc1ccccc1	-0.4	12.7	1.6	i
CC(=O)Nc1ccc2c(c1)C(=O)N(C)[C@H]1CC[C@H](CC(=O)NCc3ccc4c(c3)OCO4)O[C@H]1CO2	0.7	-4.5	-2.0	i
C[C@@H]1CCCCO[C@@H](CN(C)Cc2ccccc2)[C@H](C)CN([C@@H](C)CO)C(=O)c2cc(NC(=O)c3ccccc3)ccc2O1	1.5	5.4	-0.9	i
C[C@@H]1CN([C@@H](C)CO)C(=O)c2cccc(NS(=O)(=O)c3ccccc3)c2O[C@H]1CN(C)S(=O)(=O)c1ccc(F)cc1	-2.0	-0.1	-0.1	i
N#Cc1cccc(-c2ccc3c(c2)[C@@H]2[C@@H](CCN2C(=O)CN2CCOCC2)[C@@H](CO)N3)c1	-4.2	-0.2	-4.1	i
COc1ccc(S(=O)(=O)Nc2ccc3c(c2)C(=O)N([C@@H](C)CO)C[C@H](C)[C@@H](CN(C)S(=O)(=O)c2ccc(Cl)cc2)O3)cc1	-5.9	-14.0	2.5	i
C[C@H]1CCCCO[C@@H](CN(C)S(=O)(=O)c2ccc(F)cc2)[C@@H](C)CN([C@@H](C)CO)C(=O)c2cc(NC(=O)Nc3ccc(F)cc3)ccc2O1	2.6	10.1	3.0	i
CC(=O)N1C[C@@H](CN2C(=O)CCC2=O)[C@@H]2C[C@H]1c1ccccc1N2C	-6.8	4.8	4.0	i
COc1ccc(NC(=O)Nc2ccc3c(c2)CC(=O)N([C@@H](C)CO)C[C@H](C)[C@H](CN(C)C(=O)Nc2c(C)noc2C)O3)cc1	3.4	4.1	-0.2	i
CN(C[C@H]1[C@@H](c2ccccc2)[C@H](CO)N1Cc1ccccn1)S(C)(=O)=O	0.1	-0.6	0.1	i
CC(C)C[C@H](NC(=O)c1cccs1)C(=O)N1CCC[C@H]1C(=O)NCc1ccccc1	-4.3	1.5	2.7	i
Cn1cnc(S(=O)(=O)N2C[C@H](O)COC[C@H]3O[C@H](CC(=O)NC4CCC4)CC[C@@H]32)c1	3.7	11.2	-1.6	i
C[C@@H]1CCCCO[C@@H](CN(C)C(=O)NC2CCCCC2)[C@H](C)CN([C@@H](C)CO)C(=O)c2cc(NC(=O)c3ccccc3)ccc2O1	-3.7	-10.2	1.1	i
CCN1C[C@@H]2[C@@H]3C(=O)N(Cc4ccccc4)C(=O)[C@@H]3[C@](C)(C1=O)N2C(=O)c1ccccc1	11.2	16.2	1.5	i
COc1ccc(CCc2nc3ccccc3n2C(CCc2ccccc2)c2nc3ccccc3[nH]2)cc1 (configuration not stated)	-2.3	1.0	14.0	i
C[C@@H]1ON(C)[C@H]2C[C@H]3c4cc(-c5ccccc5)ccc4CCN3C[C@@H]12	-5.8	-0.8	3.3	i
C[C@H]1CN([C@@H](C)CO)C(=O)c2cccc(NS(=O)(=O)c3ccc(Cl)cc3)c2O[C@@H]1CN(C)S(=O)(=O)c1ccc(F)cc1	0.1	2.3	-0.5	i
COCC(=O)Nc1ccc2c(c1)C(=O)N(C)[C@@H]1CC[C@H](CC(=O)Nc3cn(C)nc3C)O[C@H]1CO2	4.7	8.4	-1.8	i
Fc1ccccc1-c1ccc(C2[C@@H]3CN(Cc4ccccn4)C[C@H]2N3)cc1 (some centres not stated)	-6.5&-57.8	2.1&-74.0	-0.7&-22.0	i

Assay outcomes: PubChem, Broad Institute

These rows are one share of the data, so the mix of outcomes need not match the whole.
